Ab BasE inh – BasE siderophore biosynthesis inhibition; purified BasE, fluorescence polarization binding displacement; inhibition, % (no concentration beside the values); hit rate 0.1% among 84,000; AID 485350;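 active = both replicates above 25% with normal brightness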;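 also: 0% = negative plate control signal and 100% = positive plate control signal; stock transfer was 100 nL into about 30 µL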
KSHV LANA nucl – inhibitors of KSHV LANA binding to nucleosomes; FITC-LANA1-23 / chicken nucleosome fluorescence polarization; active compounds read low; hit rate 0.3% among 51,000; z-score (concentration not given with the values);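 active = both repeat wells score below -2 in polarization z-score versus plate sample wells, excluding overly bright wells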;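 also: 100 nL library stock added to about 30 µL; numbers are from one replicate; some results filed as inactive read as strong as hits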
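test system = FITC-LANA peptide and chicken nucleosomes | amount = 240 nM purified chicken nucleosomes (480 nM peptide binding sites), final | reagent = 50 nM FITC-LANA1-23 probe | medium = TEN-BT buffer, pH 7.5 | doses = single compound addition by pin transfer, 100 nL per well | timing = 10–45 min, room temperature | detection = fluorescence polarization | repeats = duplicate plates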
The depositor's hits bear a star; · = no result given. These rows are one share of the data, so the mix of outcomes need not match the whole.

The line under a structure holds: Ab BasE inh	KSHV LANA nucl
O=C(CSCC(=O)c1ccccc1)c1ccccc1
  1.6	·
COc1ccc(CN(C)C(=O)C2CCCN2C(=O)c2cccs2)cc1 (configuration not stated)
  -1.7	·
N#CCn1c(COC(=O)C2CC(=O)N(CCc3ccccc3)C2)nc2ccccc2c1=O (configuration not stated)
  -7.0	·
CCOC(=O)c1sc(N)c(C#N)c1COC(=O)c1ccc(S(=O)(=O)N2CCCC2)cc1
  -57	·
Cc1ccc(NC(=O)Nc2c(C)nn(C)c2C)cc1
  -1.0	·
O=C(OCC(=O)N1CCCCC1)c1c[nH]c(=O)[nH]c1=O
  2.5	·
Cc1cc(C(=O)Cn2cc(S(=O)(=O)N(C)C)ccc2=O)c(C)n1Cc1ccco1
  1.4	·
Cc1ccc(N2C(=O)/C(=C\c3ccc4c(c3)OCO4)N=C2SCC(=O)N2CCN(C(=O)c3ccco3)CC2)cc1
  1.3	·
Cc1sc2ncn(C)c(=O)c2c1-c1ccccc1
  3.6	1
O=C(COCc1nc2ccccc2c(=O)[nH]1)NCC1CCCCC1
  1.6	-0.61
CCCCN(C)S(=O)(=O)c1ccc(C(=O)Nc2cccc3c2C(=O)NC3=O)cc1
  1.6	-0.22
Cc1ccc(-c2nnc(SCCC(=O)N3CCOCC3)o2)cc1
  0.9	-0.67
Cc1noc(C)c1COc1cccc(C(=O)N2CCN(c3ccccc3)CC2)c1
  1.2	·
C/C(=N\n1cnnc1)c1ccc2ccccc2c1
  2.5	·
CCN(C(=O)CSc1nc(C)cc(C(F)(F)F)n1)c1ccccc1
  1.6	-0.55

The results go on:
The line under a structure holds: Ab BasE inh	KSHV LANA nucl
Nc1nnc(C2=C(O)/C(=C/c3ccccc3)CC2)s1
  4.3	·
N#CC1=C(c2ccccc2)COC1=O
  ·	0.67
Cc1c(C(=O)O)sc2c1C(=O)NS2(=O)=O
  2.6	·
CCN(c1ccc(C(=O)CSc2nnc(C(F)(F)F)n2C)cc1)S(C)(=O)=O
  2.5	·
CCN(c1ccc(F)cc1)S(=O)(=O)c1ccc2[nH]cc(C(=O)NCC3CCCO3)c(=O)c2c1 (configuration not stated)
  -0.2	-0.19
CCOc1cc(C(=O)NCCc2nc3ccccc3[nH]2)cc(OCC)c1OCC
  -5.6	1.9
CC(C)c1ccc(-c2nc(N3CCCCCC3)nc3n[nH]c(N)c23)cc1
  1.4	-0.8
CC(C)n1cnnc1SCC(=O)Nc1ccc(F)cc1
  1.9	·
CCn1c(=O)c(=O)[nH]c2cc(C(=O)Nc3nc(CN4CCCCC4)cs3)ccc21
  -19	·
Cc1noc(C)c1S(=O)(=O)NC(C)C(=O)O (configuration not stated)
  1.4	-0.22
C=C(C)c1cccc(C(C)(C)NC(=O)Nc2ncccn2)c1
  2.4	·
CCn1c(CSc2nnc(COc3ccc(OC)cc3)n2-c2ccccc2F)nc2cc(C(=O)O)ccc21
  0.5	·
Cc1cc2c(=O)n(CC(=O)NCC(=O)N3CCC(C(N)=O)CC3)cnc2s1
  -2.4	-0.56
Cc1ccc(S(=O)(=O)NCc2ccc(/C=C(/C#N)C(=O)NCc3ccccc3)o2)cc1
  0.1	0.58
CCOC(=O)c1ccc(-c2ccc(/C=C3\SC(N=Nc4c(O)[nH]c5ccccc45)=NC3=O)o2)cc1
  7.5	0.42

(cont.)
The line under a structure holds: Ab BasE inh	KSHV LANA nucl
CCOc1nc(C)c(/C=C/C(=O)O)c(OCC)n1
  -1.1	-0.24
Cc1c(/C=N/NC(=O)Cn2c(C(F)(F)F)nc3ccccc32)cc(C#N)n1C
  -1.0	·
COc1ccc(C2Nn3c(nnc3-c3ccccc3)SC2C(=O)Nc2ccccc2)cc1 (configuration not stated)
  -0.9	-0.69
CCOC(=O)c1cnc(SCC(=O)Nc2ccccc2)nc1N
  0.4	-1.6
O=C(c1cc2ccccc2oc1=O)N(Cc1ccc(F)cc1)C1CC1
  -0.9	-0.37
Cn1nc(CC(=O)N2CCCN(S(=O)(=O)c3ccc(F)cc3)CC2)c2ccccc2c1=O
  -1.7	·
Cc1cccc(NC(=S)NC2CCCC2)c1
  1.2	-0.006
Cc1c(C(=O)Nc2ccncc2)oc2ccccc12
  2.3	-0.22
CN(CC(=O)Nc1ccc2[nH]c(=O)[nH]c2c1)c1ccc2ccccc2c1
  0.3	·
Clc1ccc(OCc2nc3ccccc3n2CN2CCOCC2)cc1
  -2.0	·
CCOC(=O)c1[nH]c(C)c(/C=N/O)c1C
  -5.7	0.34
Cc1ccccc1-c1nnn(CC(=O)NC(=O)NC(C)C)n1
  0.6	·
CSC1=N/C(=C\c2cccnc2)C(=O)N1c1ccccc1
  1.9	0.48
N#Cc1c(SCC(N)=O)nc2c(c1-c1ccc(O)cc1)CCCC2
  2.6	·
CCN(CC)c1cc(C)c2cc(NC(=O)/C=C/c3ccco3)ccc2n1
  -0.8	-0.084

Looked up one by one from the list above:
The line under a structure holds: Ab BasE inh	KSHV LANA nucl
Cc1cccc(NC(=S)NC2CCCC2)c1
  1.2	-0.006
CCOC(=O)c1cnc(SCC(=O)Nc2ccccc2)nc1N
  0.4	-1.6

(continued)
The line under a structure holds: Ab BasE inh	KSHV LANA nucl
O=C(Nc1ccc(N2CCCC2)cc1)c1ccc(Br)o1
  -0.3	-0.51
CC(C)(C)NC(=O)COc1ccc(S(=O)(=O)N2CCOCC2)cc1
  6.0	-0.65
c1cc2c(cc1Nc1nc(-c3ccc4c(c3)OCO4)cs1)OCCO2
  1.4	·
CC(C)(C)c1nn(-c2ccccc2)c2[nH]c(=O)c(CNc3ccc4c(c3)OCO4)cc12
  0.7	-0.085
COCCNC(=O)NC1CCCCC1
  2.5	-0.13
O=C(NCc1nc(-c2ccc(Cl)cc2)no1)C1CCCCC1
  2.4	-0.3
C=CCn1c(=O)c(C(=O)NC)c(O)c2cc(OC)c(OC)cc21
  1.5	0.45
FC(F)(F)c1nc(NCC(c2ccco2)N2CCCCC2)c2ccccc2n1 (configuration not stated)
  -1.8	·
O=C1CCCN1CC(CN1CCOCC1)Sc1nnnn1-c1ccccc1 (configuration not stated)
  3.0	·
N#Cc1c(-c2ccccc2)noc1/C=C/Nc1ccccc1
  ·	2
CC1=C(c2ccc(C)cc2)S(=O)(=O)NC1=NCCN1CCOCC1
  1.2	-0.75
COc1cccc(N=Cc2c[nH]c3ccccc23)c1
  -22	·
CC(C(=O)Nc1ccc2c(c1)OCCO2)n1cc(S(=O)(=O)N2CCCC2)ccc1=O (configuration not stated)
  -0.1	·
Cc1ccc(NC(=O)C(C)Sc2n[nH]c(-c3ccccc3O)n2)cc1 (configuration not stated)
  5.3	0.036
CC(=O)O/N=C/c1c(Nc2ccc(C)cc2)nc2c(C)cccn2c1=O
  0.0	0.35

Further entries
The line under a structure holds: Ab BasE inh	KSHV LANA nucl
Cc1cc(C)cc(NC(=O)N2CCN(Cc3ccncc3)CC2)c1
  ·	0.7
COc1cccc(OC)c1OC(=O)C(C)Oc1ccc(C)cc1 (configuration not stated)
  2.3	·
CCOC(=O)C1CCCN(S(C)(=O)=O)C1 (configuration not stated)
  0.1	-0.042
CN(CC(=O)Nc1ccc(F)c(F)c1F)C(=O)c1cccc(C(F)(F)F)c1
  1.2	·
Cc1ccc(CN2CCN(/N=C\C=C\c3ccccc3)CC2)cc1
  4.6	·
CCSc1cnn(-c2ccccc2)c(=O)c1Cl
  5.3	-0.48
O=C(Nc1ccccc1C(=O)NC1CCCC1)c1cn2ccccc2n1
  1.0	·
CCc1cccc(NC(=O)/C=C/c2ccco2)c1
  -1.1	1.6
S=c1cc[nH]c(=S)n1-c1nc(-c2ccccc2)sc1-c1ccccc1
  1.8	·
CCCN(CC(=O)Nc1ccccc1C)C(=O)CSc1ccc(S(=O)(=O)N2CCOCC2)cn1
  0.3	·
CC1CCN(S(=O)(=O)c2ccc(NC(=O)c3ccc4c(c3)OCCO4)cc2)CC1
  2.0	-1.4
CCS(=O)CCSc1nc(-c2ccc(Br)cc2)cc(-c2ccccc2)c1C#N (configuration not stated)
  2.9	·
CC1=C(C)CS(=NC(=O)c2ccccc2)N(C(=O)c2ccccc2)C1 (configuration not stated)
  1.5	0.26
CN(C)C=NC(=O)c1cccc(Br)c1
  -0.2	·
CC(CC(=O)NCCN1C(=O)S/C(=C\c2cccs2)C1=O)n1ccnc1 (configuration not stated)
  1.9	·

The list goes on:
canonical_smiles | Ab BasE inh | KSHV LANA nucl
C=CCn1c(=NC(=O)CC)sc2cc(S(N)(=O)=O)ccc21 | -0.8 | -0.2
Cc1ccc(NC(=O)CC(C(=O)O)N(C)C)cc1 (configuration not stated) | -1.1 | 1.1
N/C(=N\c1nc2ccccc2s1)NC(=O)c1ccccc1N | -1.2 | 0.077
CN=c1scc(-c2cc(C)n(CC3CCCO3)c2C)n1C (configuration not stated) | -1.2 | ·
COc1cccc(/C=C2\SC(=S)C(N)C2=O)c1OC (configuration not stated) | 1.4 | 0.4
CCCN=C1NN=C(c2cc(C)n(Cc3ccc4c(c3)OCO4)c2C)CS1 | -0.6 | ·
Cc1[nH]c2ccccc2c1C(=O)CN1C(=O)C2CC=CCC2C1=O (configuration not stated) | 1.3 | ·
CCc1cc(=O)[nH]c(NC2CCN(C(=O)N3c4ccccc4Sc4ccccc43)CC2)n1 | -3.0 | 0.16
CCc1ccc(C(=O)OCC(N)=O)cc1 | -1.9 | ·
O=C(CN1CCN(S(=O)(=O)c2ccc3[nH]c(=O)[nH]c3c2)CC1)N1CCCCCC1 | -0.3 | ·
CCN(CC)c1ccc(-n2c(C)cc(/C=C3/NC(=O)N(Cc4ccccc4F)C3=O)c2C)cc1 | 1.7 | ·
CC(=O)OCC(=O)Nc1ccccc1 | 0.0 | ·
CCc1ccccc1N(CC(=O)N1CCc2ccccc2C1)S(C)(=O)=O | -3.9 | -0.49
O=C(/C=C/c1c(Cl)nc2sccn12)Nc1ccc(F)cc1 | 3.5 | ·
CC(C)(C)c1ccccc1NC(=O)c1ccc2c(c1)SC1=NS(=O)(=O)CCN12 | 2.4 | ·

Whole records from above. Order of values: Ab BasE inh	KSHV LANA nucl
Shown for CC(=O)OCC(=O)Nc1ccccc1 → 0.0	·
Shown for CCCN(CC(=O)Nc1ccccc1C)C(=O)CSc1ccc(S(=O)(=O)N2CCOCC2)cn1 → 0.3	·
Shown for COc1cccc(OC)c1OC(=O)C(C)Oc1ccc(C)cc1 (configuration not stated) → 2.3	·
Shown for CCN(c1ccc(C(=O)CSc2nnc(C(F)(F)F)n2C)cc1)S(C)(=O)=O → 2.5	·
Shown for Cc1c(/C=N/NC(=O)Cn2c(C(F)(F)F)nc3ccccc32)cc(C#N)n1C → -1.0	·

Next records follow.
canonical_smiles | Ab BasE inh | KSHV LANA nucl
COC(=O)C1=C(CS(=O)(=O)c2ccccc2)NC(=O)NC1c1ccccc1 (configuration not stated) | -2.0 | -1.3
CCOC(=O)c1[nH]c(C(=O)O)c(CCN(CC)CC)c1C | 3.2 | 0.61
CCOC(=O)c1ccc(NC(=O)c2ccc(-c3ccc(F)cc3)o2)cc1 | 1.4 | -0.23
Cc1cn(C2C=CC(CO)O2)c(=O)[nH]c1=O (configuration not stated) | 1.5 | -0.086
CCCNC(=O)Nc1cc(C)ccn1 | -0.3 | -0.064
O=C(NCCO)c1nc2ccccc2s1 | 0.5 | 0.56
NC(=O)CSc1nc2[nH]ncc2c(=O)[nH]1 | 0.2 | -0.35
O=C(NCc1cccs1)c1cccn2c(=O)c3c4c(sc3nc12)CCCC4 | -8.4 | -0.2
Cc1cc(C(=O)OC(C)C(=O)N2CCc3ccccc32)c2ccccc2n1 (configuration not stated) | 0.7 | ·
O=C(O)C1CC1C(=O)Nc1ccc(Oc2ccc(Cl)cc2C2CCCCC2)nc1 (configuration not stated) | -0.8 | ·
COC(=O)c1cc(S(=O)(=O)N2CCC(C)CC2)c[nH]1 | -0.8 | -0.78
Cc1ccc(C)n1-c1nnc(N2CCC(C(=O)O)CC2)s1 | 2.5 | -2
Cc1ccccc1NC1=NC2(CCCCC2)N=C(N)N1 | 2.6 | ·
Cc1cc(N)n2ncnc2n1 | 0.4 | -1.2
CNC(=O)NC(=O)C(Sc1nnc2sc3ccccc3n12)c1ccccc1 (configuration not stated) | 1.5 | ·

Continued.
canonical_smiles | Ab BasE inh | KSHV LANA nucl
O=C(Oc1ccc2c(c1)OCO2)c1cccc(S(=O)(=O)N2CCCC2)c1 | 0.1 | 0.22
COC(=O)c1cn(-c2ccccc2)nc1-c1cccs1 | 0.3 | ·
O=C(CN1C2=NCCN2c2ccccc21)C12CC3CC(CC(C3)C1)C2 | -2.8 | -0.27
COc1ccccc1N1CCN(c2ncnc3nc[nH]c23)CC1 | 2.4 | -0.32
Cc1ccccc1CN(Cc1ccco1)C(=O)c1cc2ccccc2oc1=O | -0.5 | 0.09
O=C(Nc1cccnc1)c1cn(-c2ccccc2)nc1-c1cccs1 | 2.4 | ·
Cc1ccc(N/C(N)=N/c2nc(C)cc(=O)[nH]2)c(C)c1 | 1.8 | ·
O=C(/C(=C\c1ccc(F)cc1)n1ccccc1=O)N1CCCC1 | -1.8 | -0.31
CCSc1nc2ccccc2c(=O)n1CC | -5.3 | 2.5
Cc1ccc2cc3c(nc2c1)N(c1ccc(C(=O)O)cc1)CC3 | 3.3 | 0.15
CN1/C(=C\C(=O)c2ccccc2)Sc2ccccc21 | -2.9 | 0.48
CN1CCC(N(C)C(=O)COc2ccc(S(=O)(=O)N3CCOCC3)cc2)CC1 | 1.4 | ·
CC(C)N(C(=O)Cn1c(=O)n(-c2ccc(F)cc2)c(=O)c2oc3ccccc3c21)C(C)C | 1.2 | -0.043
CC1(C)OC(=O)C(=Cc2cc(Br)c(O)c(Br)c2)C(=O)O1 | 0.5 | 0.28
CSc1ccc(/C=N/n2c(=O)oc3ccccc3c2=O)cc1 | -2.4 | ·
CN(C)S(=O)(=O)c1cccc(COC(=O)C2=COCCO2)c1 | 0.9 | ·
